Source: PubChem (Southern Research Institute)
Mtb growth: Confirmatory growth inhibition assay against Mycobacterium tuberculosis H37Rv, potency (AID 1949); most inactive calls were filed without a number and no value below 0 was filed; inhibition, % at 10 µg/mL; hits with a dose series show IC50 in µg/mL; 100,000 compounds, 1.6% hits;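 active means confirmed in a dose series; inconclusive means about 50% or more but not retested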;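 further: bacteria grown 7 days with compound before Alamar blue readout; 0% = untreated bacteria and 100% = reference antibiotic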
Starred values were filed as active, the others as inactive; i = inactive; ? = inconclusive. These rows are one share of the data (hit frequency here may not be typical).

The opening 3 records, to show the layout:
SMILES	Mtb growth
O=C(CN(Cc1ccccc1F)S(=O)(=O)c1ccc(Cl)cc1)N1CCCCCC1	7%
CCOC(=O)c1ccc(NC(=O)CSc2nnc(-c3sc4ccccc4c3Cl)o2)cc1	i
C=CCn1c(COc2ccccc2Cl)nnc1SCC(=O)Nc1cccc(C(=O)O)c1	i

The whole of this part (from the top)
SMILES	Mtb growth
O=C(CN(Cc1ccccc1F)S(=O)(=O)c1ccc(Cl)cc1)N1CCCCCC1	7%
CCOC(=O)c1ccc(NC(=O)CSc2nnc(-c3sc4ccccc4c3Cl)o2)cc1	i
C=CCn1c(COc2ccccc2Cl)nnc1SCC(=O)Nc1cccc(C(=O)O)c1	i
COc1ccc(S(=O)(=O)N(CC(=O)Nc2ccccc2Br)Cc2ccccc2)cc1	i
O=C(c1ccc(Cl)c(S(=O)(=O)N2CCOCC2)c1)N1CCN(C(c2ccccc2)c2ccccc2)CC1	4%
N#Cc1c(NC(=O)c2cc3ccccc3o2)sc2c1CCCC2	i
CCOc1cc(NC(=O)c2cccs2)c(OCC)cc1NC(=O)c1ccccc1	3%
CC(C)(C)c1ccc(OCC(=O)Nc2ccc3c(c2)OCCO3)c(Br)c1	4.2µg/mL*
O=C1CC(c2nc3ccccc3n2CCc2ccccc2)CN1c1ccccc1 (stereo unspecified)	i
S=C(NCc1cccnc1)NC1CCCC1	i
CCC(C(=O)n1cccn1)c1ccccc1 (stereo unspecified)	i
CC1(C)CC(=O)C=C(Nc2c[nH]c(=O)[nH]c2=O)C1	1%
Cc1cccc(/C(N)=N/OC(=O)COc2cc(C)c(Br)c(C)c2)c1	i
Cc1cc(NC(=S)Nc2cccc3ccccc23)n[nH]1	23%
CC(=O)Nc1ccc(C(=O)CSc2cc(C)c3ccccc3n2)cc1	i
N#Cc1cc2c(nc1SCc1ccccc1C(F)(F)F)CCC2	i
CS(=O)(=O)N(CC(=O)Nc1ccc2c(c1)OCO2)c1ccc(I)cc1	i
Cc1cccc(C)c1OCC(=O)Nc1ccc(F)cc1F	i
CC(=O)Oc1ccc(C2Nc3c(C(=O)c4ccccc4)cc(Cl)cc3C3C=CCC32)cc1 (stereo unspecified)	i
Cc1cc(Br)ccc1OCC(=O)N1CCN(c2ccc(F)cc2)CC1	28%
COc1ccc(Oc2ccc(NC(=O)c3ccccc3[N+](=O)[O-])cc2)cc1	4%
CCCN(CCC)C(=O)c1cc2cccc(OC)c2oc1=O	1%
COc1ccc(N2CCN(C(=O)c3cccnc3)CC2)c([N+](=O)[O-])c1	i
CN1CCN(C(=O)CN(Cc2ccc(Cl)cc2)S(C)(=O)=O)CC1	i
Clc1ccc(OCCOCCN2CCCCC2)c(Br)c1	i
OCc1cc2c(cc1Br)OCO2	i
CCc1ccc(OCc2nnc(SCC(=O)Nc3sc4c(c3C#N)CCCC4)n2C)cc1	i
N#CCCS(=O)(=O)c1ccc(N)cc1	i
CC(C)=CCOc1ccc2oc(C)c(C(=O)OC(C)C)c2c1	6%
CC(NC(=O)c1cccc(I)c1)c1ccc2c(c1)OCCO2 (stereo unspecified)	i
CSc1ccn(CCC(=O)O)c(=O)n1	i
Cc1nn(-c2ccccc2)c2sc(C(=O)O)cc12	i
Cc1ccc(N(CC(=O)NCCc2ccccc2)S(=O)(=O)c2ccccc2)cc1	i
CCOc1ccc(NC(=O)COc2ccc(C(=O)NCc3ccccc3)cc2)cc1	i
COc1ccc(NC(=S)Nc2cccc(C(F)(F)F)c2)c(C)c1	i
CCn1c(SCC(=O)Nc2cc(C)c(C)cc2Br)nnc1-c1ccc(C)cc1	i
CC1=CC(=C2C(=O)NC(=O)NC2=O)C=C(C(F)(F)F)N1Cc1ccccc1	i
Cc1cc(-c2ccccc2)nc2cc(C(=O)N3CCN(c4ccccc4)CC3)nn12	i
CC1CC(C)CN(C(=O)NCC23CC4CC(CC(C4)C2)C3)C1 (stereo unspecified)	1%
Cc1cccc(NS(=O)(=O)c2ccc(Oc3ccccc3)cc2)n1	i
CCn1c(CCc2ccccc2)nnc1SCC(=O)Nc1cccc(C)c1	i
CCCCc1ccc(NC(=O)C2Cc3ccccc3C(=O)O2)cc1 (stereo unspecified)	i
Fc1cc(Br)cc2c1NC(c1cccnc1)C1CC=CC21 (stereo unspecified)	i
Cc1ccc(NC(=O)C2CCN(S(=O)(=O)c3ccc(F)cc3)CC2)c(C)c1	i
CCOc1cc(C2NC(=S)NC(c3ccccc3)=C2C(N)=O)ccc1OCc1ccccc1 (stereo unspecified)	11%
Clc1ccc(Cn2c(-c3ccccc3)nnc2-c2ccccc2)cc1	7%
COc1cc(C=O)ccc1OCc1ccccc1	i
Cc1cc(Cl)c(S(=O)(=O)NCc2ccco2)cc1OCC(=O)NC1CCCCC1	i
CCCCc1ccc(NC(=S)N2CCN(C(=O)OCC)CC2)cc1	i
O=C(NC(=S)Nc1ccccc1N1CCCC1)c1ccc(F)cc1	i
C=CCN(CC=C)C(=O)c1ccc(N2C(=O)CCC2=O)cc1	i
CCC(=O)Nc1nnc(CSCc2ccc(F)cc2)s1	i
COc1ccc(C)cc1NC(=O)N1CCN(C(=O)C2CCCO2)CC1 (stereo unspecified)	i
CCOc1cc2c3c(c1)C1(C(=O)N3C(C)(C)C=C2C)C(C#N)=C(N)Oc2cc(O)ccc21 (stereo unspecified)	3.1µg/mL*
CCN(CC)C(=O)c1ccc(Cn2cc(Cl)cn2)o1	i
CCCC(=O)Nc1cccc(NC(=S)NC(=O)c2ccc(C)c(Cl)c2)c1	i
O=C(Cc1ccc(Cl)cc1)Nc1ccccc1N1CCN(C(=O)c2ccc(Cl)cc2)CC1	i
CCOC(=O)c1cc(Cc2ccccc2)sc1NC(=S)Nc1c(C)n(C)n(-c2ccccc2)c1=O	i
Cc1ccc(C(=O)Nc2ccc(C(N)=O)cc2)cc1Br	i
Cc1cc(OCC(=O)Nc2ccccc2N2CCC(C)CC2)ccc1Cl	i

Rewritten with each value named: part of the list above.
> Cc1ccc(NC(=O)C2CCN(S(=O)(=O)c3ccc(F)cc3)CC2)c(C)c1
  Mtb growth: i

> CCOc1cc(C2NC(=S)NC(c3ccccc3)=C2C(N)=O)ccc1OCc1ccccc1 (stereo unspecified)
  Mtb growth: 11%

3 entries out of the list, sorted by number of heavy atoms, ascending.
SMILES	Mtb growth
CCN(CC)C(=O)c1ccc(Cn2cc(Cl)cn2)o1	i
COc1ccc(C)cc1NC(=O)N1CCN(C(=O)C2CCCO2)CC1 (stereo unspecified)	i
CCn1c(CCc2ccccc2)nnc1SCC(=O)Nc1cccc(C)c1	i

(list continues)
SMILES	Mtb growth
CCC(C)c1ccc(NC(=S)Nc2cccc(S(=O)(=O)N3CCOCC3)c2)cc1 (stereo unspecified)	i
FC(F)(F)c1cccc(NC(=S)Nc2ccn(Cc3ccc(Cl)c(Cl)c3)n2)c1	2%
CC(CNC(=O)c1cccs1)c1ccccc1 (stereo unspecified)	i
CCOc1ccc(C(=O)Nc2cc(C)c(Cl)cc2OC)cc1OCC	2%
Cc1ccc(-c2nc3ccccc3o2)cc1[N+](=O)[O-]	3%
CC(C)N(C(=S)NCc1ccccc1)C(C)C	i
CC(C)Cc1nc(SCC(=O)Nc2nnc(CC(C)C)s2)n[nH]1	i
Cc1ccc(SC(C)C(=O)Nc2ccc(Cl)c(Cl)c2)cc1 (stereo unspecified)	12µg/mL*
COc1ccc(NC(=O)CSc2nc3c(c(-c4ccccc4)c2C#N)CN(C)CC3)cc1OC	i
CCOC(=O)c1cnc2ccc(C(=O)OC)cc2c1Nc1ccc(O)cc1	i
CCSC1=C(C#N)C(c2ccc(C)o2)C(C(C)=O)=C(C)N1 (stereo unspecified)	i
CCCCC(=O)Nc1ccc(NC(=S)NC(=O)c2cc(Br)ccc2Cl)cc1OC	i
O=C(NCc1ccco1)C1CC(=O)N(c2ccc(Cl)cc2)C1 (stereo unspecified)	i
c1ccc(COc2ccc3ccccc3c2CNCc2cccnc2)cc1	7.9µg/mL*
O=C(CCCOc1ccccc1)Nc1nnc(C2CCCCC2)s1	i
Cc1cc(Cl)ccc1OCC(=O)Nc1nnc(CCC(=O)c2ccccc2)s1	i
Cc1cc(Br)ccc1OCCN1CC(C)OC(C)C1 (stereo unspecified)	i
CS(=O)(=O)N(CC(=O)Nc1ccccc1C(=O)N1CCCC1)c1ccc(Cl)cc1	i
C=CCOc1ccc2c(C)cc(=O)oc2c1C(=O)CC	i
O=Cc1ccc(OCc2ccccc2Br)cc1	i

Rewritten with each value named: entries from further up.
CC(CNC(=O)c1cccs1)c1ccccc1 (stereo unspecified)
  Mtb growth: i
CC(C)Cc1nc(SCC(=O)Nc2nnc(CC(C)C)s2)n[nH]1
  Mtb growth: i

New compounds follow:
SMILES	Mtb growth
CCN(CC)c1ccc(-n2nc3cc(C)c(N)cc3n2)cc1	?
Cc1ccc(CCNC(=O)Nc2ccc(C)cc2)cc1	i
COCCNC(=O)c1ccccc1NC(=O)Cc1ccccc1	i
CC(=O)Nc1ccc(NC(=O)C(C)Sc2ccccc2)cc1 (stereo unspecified)	i
CCc1ccccc1NC(=O)C1CC(=O)N(c2ccc(C)c(C)c2)C1 (stereo unspecified)	4%
O=C(CS(=O)(=O)c1ccccc1)NCc1ccc(Cl)cc1	i
O=C(NCc1ccc2c(c1)OCO2)c1ccc(Cn2c(=S)[nH]c3ccccc3c2=O)cc1	i
CC(C)C(=O)NCCc1nc2ccccc2n1C	i
O=C(CC1Nc2ccccc2NC1=O)Nc1cccc(Cl)c1Cl (stereo unspecified)	1%
COc1ccc(CCC(=O)Nc2ccc(-c3noc(-c4cccs4)n3)cc2)cc1	4%
O=C(Nc1ccccc1N1CCCC1)c1ccccc1[N+](=O)[O-]	3%
CCC(=O)Oc1ccc(C(=O)Nc2ccccc2OC)cc1	3%
O=C(CSc1n[nH]c(-c2ccncc2)n1)NCCc1ccccc1	i
Cc1cccc(NC(=S)Nc2ccc(Nc3ccccc3)cc2)n1	i
COc1cc(Cl)c(S(=O)(=O)N2CCN(C)CC2)cc1Cl	i
COc1ccc2nc(NC(=O)C34CCC(C)(C(=O)C3)C4(C)C)sc2c1 (stereo unspecified)	3%
CC(C)CN1C(=O)c2ccc(C(=O)Nc3ccc(Cl)cn3)cc2C1=O	i
COc1ccc(OC)c(NC(=O)c2ccccc2N(Cc2ccccc2)S(C)(=O)=O)c1	i
NS(=O)(=O)c1ccc(NC(=O)C2(c3ccccc3)CCCC2)cc1	i
O=C(c1ccc(COc2cc(Cl)ccc2Cl)o1)N1CCCCCC1	32%
CC1CCc2c(sc3ncn(Cc4ccc([N+](=O)[O-])cc4)c(=O)c23)C1 (stereo unspecified)	8%
COc1ccc(C(=O)N2c3cc4c(cc3C(C)=CC2(C)C)OCO4)cc1	i
O=C(Nc1ccncc1)c1ccc2nc(-c3ccccc3)c(-c3ccccc3)nc2c1	4.6µg/mL*
Cc1ccc(OCC(=O)Nc2cccc(Cl)c2Cl)c(C)c1	0%
CCC(=O)c1ccccc1OCCN1CCc2ccccc2C1	5%
Cc1cc(Br)ccc1OCCCCN1CCN(C)CC1	i
CC(=O)c1cccc(NC(=O)N2CCc3ccccc3C2)c1	2%
O=S(=O)(c1ccc(Cl)cc1)N1CCN(C(=S)Nc2ccc(F)c(Cl)c2)CC1	i
CC(=O)Nc1ccc2nc(SCc3c(Cl)cccc3Cl)sc2c1	0%
O=C(CCSc1ccccc1)Nn1cnnc1	i
COCCn1c(Cc2ccccc2)nnc1SCc1ccc(Br)cc1	i
O=C(CN(CCc1ccccc1)S(=O)(=O)c1ccc(Cl)cc1)Nc1ccc(F)cc1F	4%
CCCC(=O)N1CCN(c2ccc(NC(=O)c3ccccc3Br)cc2Cl)CC1	i
CC(C)(C)c1ccc(C(=O)ON2C(=O)c3ccccc3C2=O)cc1	i
Clc1ccccc1CN1CCN(Cc2ccccc2)CC1	i
O=C(Nc1ccc2c3c(cccc13)CC2)c1cccc(-c2cc3ccccc3oc2=O)c1	29%
COc1ccc(CNC(=S)NC(C)C23CC4CC(CC(C4)C2)C3)cc1 (stereo unspecified)	2%
COc1ccccc1Oc1ccc(NC(=O)c2ccccc2C)cc1	0%
CCN(CC)CCN1C(=O)C(O)=C(C(=O)c2cccs2)C1c1ccc(C)o1 (stereo unspecified)	i
COC(=O)C1=CN(Cc2ccc(F)cc2)C=C(C(=O)OC)C1c1cccc([N+](=O)[O-])c1	8%
COCCNC(=O)C(=O)NCc1ccc(Cl)cc1Cl	2%
Cc1ccc(CC(=O)Nc2c(C)cc(C)cc2C)cc1	13%
COc1cccc(OC)c1C(=O)OCc1cccc(Oc2ccccc2)c1	i
Cc1ccc(S(=O)(=O)Nc2ccccc2C(=O)O)c(C)c1	i
O=C(Oc1ccccc1)c1ccc(COC(=O)c2cc3ccccc3oc2=O)cc1	i
COc1ccccc1CC(=O)NC1CC(C)(C)NC(C)(C)C1	i
N#C/C(=C\c1ccccc1F)c1nc2ccccc2c(=O)[nH]1	i
Cn1c(=O)n(C)c2cc3n[nH]nc3cc21	i
CC(=O)Oc1ccc(/C=C/c2nc(-c3ccccc3O)n(-c3ccccc3)n2)cc1	4%
CCCCN(CC)c1ncnc2ccc(Br)cc12	3%
COc1ccc(S(=O)(=O)C(F)(F)F)cc1NC(C)=O	i
COc1ccc(S(=O)(=O)N2CCN(c3c(C)cc(C)cc3C)CC2)c2ccccc12	9%
CCCOc1cccc(C(=O)Nc2cccc(-c3nc4ncccc4o3)c2C)c1	i
CCOC(=O)c1ccccc1NC(=O)c1ccccc1NC(=O)c1ccco1	i
Cc1ccc(NC(=O)COc2cccc(C(=O)O)c2)cc1	5%
CCOC(=O)c1cnc2c(Cl)cc(Cl)cc2c1NCCO	i
Cc1ccccc1CSCC(=O)Nc1cccc(Cl)c1	i
O=c1oc2c(CN3CCOCC3)c(O)ccc2cc1-c1ccc(F)cc1	2%
O=C(Nc1ccccc1)c1cc([N+](=O)[O-])ccc1NCc1ccco1	0%
